# Bioassay records (PubChem)
# Vaccinia inh: blocks a specific stage of Vaccinia orthopoxvirus infection; activity change (mCherry), % (concentration not given with the values); 0.01% of 89,000 active; Vaccinia-infected cells, mCherry/Venus stage reporter fluorescence; active compounds read low; some inactives read as strong as hits;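 active = mCherry past -33% and 40 or more points under the early reporter, replicates agreeing; inconclusive = past -33% without that gap or agreement; tested in A549 cells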;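 also: scaled between vehicle wells and reference inhibitor wells; 23 nL library stock went into each well; one replicate is shown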
# Vaccinia inh Venus: also measured in Vaccinia inh; calls as there; activity change (Venus), %; measured here: Venus reporter, other viral stage;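 negative = less Venus signal; first of two replicates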
# Numbers without * were called inactive; ? = inconclusive; / = not tested or not shown. Not all compounds are listed; count on the stated rates, not on these rows.
smiles	Vaccinia inh	Vaccinia inh Venus
COc1ccc(NC(=O)N(C)C[C@@H]2Oc3ccc(NS(=O)(=O)c4c(C)noc4C)cc3C(=O)N([C@@H](C)CO)C[C@@H]2C)cc1	28	23
CN1[C@H](C(=O)NCC2CCCCC2)[C@@H](CO)[C@@H]2Cn3c(ccc(-c4cccnc4)c3=O)[C@@H]21	-6	-2
COc1ccccc1-c1cnc2c(c1)C(=O)N([C@H](C)CO)C[C@H](C)[C@@H](CN(C)C(=O)c1ccncc1)O2	12	3
CNC(=O)C[C@@H]1CC[C@H]2[C@@H](COC[C@@H](O)CN2S(=O)(=O)c2ccc(Oc3ccccc3)cc2)O1	-1	3
CC(C)NC(=O)Nc1ccc2c(c1)C(=O)N([C@@H](C)CO)C[C@@H](C)[C@@H](CN(C)S(C)(=O)=O)OCCCC[C@@H](C)O2	18	7
C[C@H]1CN([C@@H](C)CO)C(=O)c2cc(NS(=O)(=O)c3ccc(F)cc3)ccc2O[C@@H]1CN(C)CC1CCCCC1	16	19
CC(C)C#Cc1cnc2c(c1)C(=O)N([C@H](C)CO)C[C@H](C)[C@H](CN(C)S(=O)(=O)c1cn(C)cn1)O2	12	0
CC(C)NC(=O)N1[C@H](CO)[C@H]2c3ccccc3N(C(=O)Nc3cccc(Cl)c3)C[C@H]21	10	3
CC(C)NC(=O)Nc1ccc2c(c1)C(=O)N([C@@H](C)CO)C[C@@H](C)[C@@H](CN(C)C(=O)NC(C)C)O2	-2	6
C[C@H]1CCCCO[C@H](CN(C)C)[C@@H](C)CN([C@@H](C)CO)C(=O)c2cc(NC(=O)Nc3ccc(F)cc3)ccc2O1	-2	-3
COc1ccc(C#Cc2ccc3c(c2)O[C@H](CN(C)C(=O)NC2CCCCC2)[C@H](C)CN([C@H](C)CO)S3(=O)=O)cc1	-3	1
COc1ccc(S(=O)(=O)N(C)C[C@H]2Oc3ccc(NC(=O)CCN4CCOCC4)cc3CC(=O)N([C@H](C)CO)C[C@H]2C)cc1	1	-5
N[C@H]1CC[C@H](CCn2cc(C3CC3)nn2)O[C@@H]1CO	-2	4
CCCC#Cc1cnc2c(c1)C(=O)N([C@@H](C)CO)C[C@@H](C)[C@@H](CN(C)S(=O)(=O)c1ccccc1)O2	7	9
C[C@@H]1CN([C@H](C)CO)C(=O)c2cccc(N(C)C)c2O[C@@H]1CN(C)S(=O)(=O)c1ccccc1	22	16
C/C=C/c1ccc([C@@H]2[C@H](CO)N3C(=O)CN(C(=O)Nc4cccc(OC)c4)C[C@@H]23)cc1	-21	-27
C[C@@H]1CN([C@@H](C)CO)C(=O)c2cc(NS(=O)(=O)c3ccc(Cl)cc3)ccc2O[C@@H](C)CCCCO[C@@H]1CN(C)C(=O)Cc1ccccc1	-24	-14
COCC(=O)Nc1ccc2c(c1)C(=O)N(C)C[C@@H](OC)[C@H](C)CN(C(=O)C1CCCC1)[C@H](C)CO2	1	3
CN(C[C@@H]1[C@@H](c2ccccc2)[C@H](CO)N1CC1CC1)C(=O)c1ccc(F)cc1	15	8
CCCNC(=O)N1C[C@H](C)[C@H](OC)CN(C)C(=O)c2cc(NC(=O)CCC)ccc2OC[C@H]1C	1	4
C[C@H]1CN([C@@H](C)CO)C(=O)c2cc(C3=CCCC3)cnc2O[C@H]1CN(C)C(=O)c1cccnc1	9	10
C[C@H]1CCCCO[C@H](CN(C)C(=O)Nc2ccc(F)cc2)[C@@H](C)CN([C@@H](C)CO)C(=O)c2cc(NC(=O)Nc3cccc4ccccc34)ccc2O1	7	7
Cc1ccc(-c2ccc([C@@H]3[C@@H](CO)N4CCCCN(C(=O)c5ccncc5)C[C@@H]34)cc2)cc1	9	-11
CC(C)NC(=O)Nc1ccc2c(c1)C(=O)N([C@@H](C)CO)C[C@H](C)[C@H](CN(C)S(=O)(=O)c1cn(C)cn1)O2	10	1
COc1cccc(NC(=O)N(C)C[C@H]2Oc3cc(C#CC4(O)CCCC4)ccc3S(=O)(=O)N([C@H](C)CO)C[C@@H]2C)c1	7	-6
O=C(Nc1ccc(F)cc1)N1C[C@@H]2[C@H](c3ccccc31)[C@H](CO)N2C(=O)Cc1ccncc1	-4	-3
CCN1[C@@H]2Cn3c(ccc(-c4ccccc4F)c3=O)[C@H]1[C@@H](C(=O)NCc1ccccc1)[C@@H]2CO	11	18
C[C@@H]1CCCCO[C@H](CN(C)C(=O)Nc2cccc3ccccc23)[C@@H](C)CN([C@@H](C)CO)C(=O)c2cc(NC(=O)Cc3ccccc3)ccc2O1	-4	-8
C[C@H]1CCCCO[C@H](CN(C)Cc2ccncc2)[C@@H](C)CN([C@@H](C)CO)C(=O)c2cc(NS(=O)(=O)c3cccs3)ccc2O1	7	7
C[C@@H]1CN([C@H](C)CO)C(=O)c2ccccc2-c2ccccc2CO[C@@H]1CN(C)S(=O)(=O)CC(F)(F)F	14	7
COc1ccc2c3c([nH]c2c1)[C@H](CO)N(C(=O)Nc1cccc(F)c1)CC31CN(CC2CC2)C1	?	/
CC(C)CC#Cc1cnc2c(c1)C(=O)N([C@@H](C)CO)C[C@H](C)[C@@H](CN(C)Cc1cncnc1)O2	2	-3
O=C(C[C@H]1CC[C@@H]2[C@H](COC[C@H](O)CN2Cc2cccc(C(F)(F)F)c2)O1)NCCc1ccncc1	-19	-9
COc1ccc(S(=O)(=O)Nc2cccc3c2O[C@@H](CN(C)Cc2ccncc2)[C@@H](C)CN([C@H](C)CO)C3=O)cc1	30	11
C[C@H](CO)N1C[C@H](C)[C@@H](CN(C)C(=O)C2CCC2)Oc2ncc(-c3ccccc3F)cc2C1=O	-1	8
O=C(C[C@@H]1CC[C@@H]2[C@H](COC[C@H](O)CN2CC2CCCCC2)O1)NCC1CC1	-10	-4
CCN(C[C@@H]1[C@H](c2ccccc2)[C@@H](CO)N1CC1CC1)C(=O)c1ccccn1	7	1
O=C(C1CCOCC1)N1CC[C@@H]2[C@H]1c1cc(-c3ccc(F)cc3)ccc1N[C@@H]2CO	8	14
C[C@@H]1CN([C@H](C)CO)C(=O)CCCn2cc(nn2)CO[C@@H]1CN(C)S(=O)(=O)c1cn(C)cn1	2	0
COc1ccc2c3c(n(C)c2c1)[C@@H](CO)N(C(=O)CN(C)C)CC31CCN(C(=O)C2CCC2)CC1	-11	-2
CC(C)[C@@H](C)NC(=O)N(C)C[C@@H]1OCc2ccccc2-c2ccccc2C(=O)N([C@H](C)CO)C[C@@H]1C	35	9
COCc1cn(CC[C@H]2CC[C@H](NC(=O)CCN3CCCCC3)[C@H](CO)O2)nn1	6	16
CN1CCN(C(=O)C[C@H]2C[C@@H]3c4cc(NC(=O)C5CCOCC5)ccc4O[C@@H]3[C@H](CO)O2)CC1	21	12
C[C@H](O)C#Cc1ccc2c(c1)O[C@@H](CN(C)C(=O)Cc1ccccn1)[C@@H](C)CN([C@@H](C)CO)S2(=O)=O	14	5
COc1ccc(S(=O)(=O)N(C)C[C@H]2Oc3c(NC(=O)CCCCCC(=O)Nc4ccccc4N)cccc3C(=O)N([C@H](C)CO)C[C@@H]2C)cc1	2	12
C[C@@H]1CN([C@@H](C)CO)C(=O)c2cccc(N(C)C)c2O[C@@H]1CN(C)Cc1ccc(C(F)(F)F)cc1	-9	-11
C[C@H]1CN([C@@H](C)CO)C(=O)Cc2cc(NC(=O)Nc3cccc4ccccc34)ccc2O[C@H]1CN(C)Cc1ccccc1	?	/
COc1ccc(NC(=O)Nc2cccc3c2O[C@H](CN(C)CC2CC2)[C@@H](C)CN([C@H](C)CO)C3=O)cc1	-5	-9
CC(C)C#Cc1cnc2c(c1)C(=O)N([C@H](C)CO)C[C@@H](C)[C@H](CN(C)C(=O)C1CCC1)O2	-1	-4
CO[C@@H]1CN(C)C(=O)c2ccc(NC(=O)Nc3cc(Cl)cc(Cl)c3)cc2OC[C@H](C)NC[C@H]1C	?	/

# Some of these compounds in order of number of heavy atoms, rising:
smiles	Vaccinia inh	Vaccinia inh Venus
C[C@@H]1CN([C@H](C)CO)C(=O)CCCn2cc(nn2)CO[C@@H]1CN(C)S(=O)(=O)c1cn(C)cn1	2	0
C[C@@H]1CN([C@H](C)CO)C(=O)c2ccccc2-c2ccccc2CO[C@@H]1CN(C)S(=O)(=O)CC(F)(F)F	14	7
C[C@H]1CN([C@@H](C)CO)C(=O)Cc2cc(NC(=O)Nc3cccc4ccccc34)ccc2O[C@H]1CN(C)Cc1ccccc1	?	/

# Reprinted from the listing, 3 compounds:
smiles	Vaccinia inh	Vaccinia inh Venus
COc1ccc(S(=O)(=O)N(C)C[C@H]2Oc3c(NC(=O)CCCCCC(=O)Nc4ccccc4N)cccc3C(=O)N([C@H](C)CO)C[C@@H]2C)cc1	2	12
C[C@@H]1CN([C@@H](C)CO)C(=O)c2cccc(N(C)C)c2O[C@@H]1CN(C)Cc1ccc(C(F)(F)F)cc1	-9	-11
C[C@H]1CN([C@@H](C)CO)C(=O)Cc2cc(NC(=O)Nc3cccc4ccccc34)ccc2O[C@H]1CN(C)Cc1ccccc1	?	/

# (further entries)
smiles	Vaccinia inh	Vaccinia inh Venus
C[C@H]1CN([C@@H](C)CO)S(=O)(=O)c2ccc(C#CCN(C)C)cc2O[C@@H]1CN(C)C(=O)c1ccccc1F	20	3
Cc1ccccc1-c1ccccc1[C@H]1[C@@H](C#N)N(C(=O)c2ccc(F)cc2)[C@@H]1CO	10	6
CCCN1[C@H](C(=O)NCCCN(C)C)[C@@H](CO)[C@@H]2Cn3c(ccc(C4=CCCC4)c3=O)[C@@H]21	5	-8
Cc1ccc(S(=O)(=O)Nc2ccc3c(c2)CC(=O)N([C@H](C)CO)C[C@H](C)[C@H](CN(C)S(=O)(=O)c2cccs2)O3)cc1	-13	-16
Cc1noc(C)c1NC(=O)N(C)C[C@H]1OCCCC[C@@H](C)Oc2ccc(NC(=O)Cc3ccccc3)cc2C(=O)N([C@H](C)CO)C[C@H]1C	3	4
O=C(C[C@H]1CC[C@H]2[C@@H](COC[C@H](O)CN2C(=O)Nc2ccccc2)O1)NCc1ccncn1	7	15
C[C@@H]1CCCCO[C@H](CN(C)C(=O)c2ccncc2)[C@H](C)CN([C@H](C)CO)C(=O)c2cc(NC(=O)c3ccccc3)ccc2O1	4	-6
C[C@H]1CN([C@@H](C)CO)C(=O)c2cccc(NC(=O)Nc3ccc(F)cc3)c2O[C@@H]1CN(C)Cc1ccccc1	-11	1
C[C@@H]1CN([C@H](C)CO)C(=O)c2cc(NS(C)(=O)=O)ccc2O[C@H]1CN(C)Cc1ccc(Oc2ccccc2)cc1	-19	-20
O=C(Cc1ccccc1)N1C[C@@H]2[C@H](c3ccccc31)[C@@H](CO)N2C(=O)Cc1ccccc1	21	10
COc1ccc(S(=O)(=O)N(C)C[C@H]2Oc3ncc(-c4ccncc4)cc3C(=O)N([C@H](C)CO)C[C@@H]2C)cc1	2	7
COc1ccc(NC(=O)Nc2ccc3c(c2)C(=O)N([C@@H](C)CO)C[C@@H](C)[C@H](CN(C)Cc2ccncc2)OCCCC[C@@H](C)O3)cc1	13	-1
CCCNC(=O)N1[C@@H](CO)[C@H](c2ccccc2)C12CN(C(=O)CC1CC1)C2	3	6
C[C@@H]1CN([C@@H](C)CO)C(=O)Cc2cc(NC(=O)Nc3ccc(F)cc3)ccc2O[C@H]1CN(C)S(=O)(=O)c1ccc(Cl)cc1	0	5
C[C@@H]1CN([C@H](C)CO)C(=O)Cc2cc(NC(=O)CCN3CCOCC3)ccc2O[C@H]1CN(C)Cc1ccc2c(c1)OCO2	17	29
O=C(Cc1ccccn1)N1CC2(C1)[C@H](c1ccccc1)[C@H](CO)N2C(=O)c1cccnc1	8	9
COC(=O)C[C@@H]1CC[C@@H]2[C@@H](COc3ccc(NC(=O)C4CC4)cc3C(=O)N2C)O1	10	10
C[C@H](CO)N1C[C@H](C)[C@@H](CN(C)C(=O)Nc2ccc(F)cc2)Oc2ncc(C#Cc3ccc(F)cc3)cc2C1=O	?	/
Cc1ccc(S(=O)(=O)N(C)C[C@H]2Oc3ccc(NC(=O)CCCN(C)C)cc3C(=O)N([C@H](C)CO)C[C@@H]2C)cc1	8	7
O=C(Cc1ccccn1)N[C@H]1CC[C@@H](CCNC(=O)c2cc(Cl)cc(Cl)c2)O[C@H]1CO	-12	-5
C[C@@H]1CN([C@@H](C)CO)C(=O)c2cc(-c3cccc(F)c3)cnc2O[C@@H]1CN(C)C(=O)Nc1ccccc1F	3	-1
C[C@H](CO)N1C[C@H](C)[C@H](CN(C)C(=O)C2CC2)Oc2cc(-c3cccc(C#N)c3)ccc2S1(=O)=O	23	12
C[C@H](CO)N1C[C@H](C)[C@H](CN(C)C(=O)c2cccc(F)c2)Oc2cc(-c3ccncc3)ccc2S1(=O)=O	14	-3
O=C(N[C@H]1C=C[C@@H](CC(=O)N2CCCCC2)O[C@H]1CO)c1cccc(F)c1	-4	0
COc1ccc([Si](C)(C)[C@@H]2[C@@H](CCO)O[C@]3(C(=O)N(Cc4ccccc4)c4ccc(N5C(=O)c6cccc7cccc5c67)cc43)[C@H]2C)cc1	-6	-13
CN1CCN(C(=O)C[C@H]2C[C@@H]3c4cc(NC(=O)Nc5ccc(C(F)(F)F)cc5)ccc4O[C@@H]3[C@H](CO)O2)CC1	15	12
C[C@H]1CN([C@@H](C)CO)C(=O)c2cc(C#CC3CCCCC3)cnc2O[C@H]1CN(C)S(=O)(=O)c1cccc(F)c1	?	/
CO[C@@H]1CN(C)C(=O)c2ccc(NC(=O)Nc3ccc(C(F)(F)F)cc3)cc2OC[C@@H](C)NC[C@@H]1C	?	/
CN1CCN(C(=O)C[C@@H]2CC[C@@H]3[C@H](COC[C@@H](O)CN3C(=O)Nc3cc(Cl)cc(Cl)c3)O2)CC1	-18	-12
